hNpr1 antagonist – human Npr1 receptor antagonism. P16066. HEK293 hNpr1 GloSensor cGMP, ANP-stimulated luminescence. Potency, µM (highest dose often 46.3 µM), without a hit: at the highest dose activity change, negative = inhibition, hits mostly inhibitors. 76,000 tested, 1.6% active. AID 1347048; active = well fitted inhibition curve with a large enough effect; inconclusive = small, poorly fitted or top-dose-only effect; inactive = no such curve, though single readings can be large or run the other way;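 note: nearly all actives have a fitted effect of over 60% in size; nearly all hits also lower the signal before the agonist is added; a reference antagonist and vehicle were the controls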
Target sequence (P16066 whole entry, looked up): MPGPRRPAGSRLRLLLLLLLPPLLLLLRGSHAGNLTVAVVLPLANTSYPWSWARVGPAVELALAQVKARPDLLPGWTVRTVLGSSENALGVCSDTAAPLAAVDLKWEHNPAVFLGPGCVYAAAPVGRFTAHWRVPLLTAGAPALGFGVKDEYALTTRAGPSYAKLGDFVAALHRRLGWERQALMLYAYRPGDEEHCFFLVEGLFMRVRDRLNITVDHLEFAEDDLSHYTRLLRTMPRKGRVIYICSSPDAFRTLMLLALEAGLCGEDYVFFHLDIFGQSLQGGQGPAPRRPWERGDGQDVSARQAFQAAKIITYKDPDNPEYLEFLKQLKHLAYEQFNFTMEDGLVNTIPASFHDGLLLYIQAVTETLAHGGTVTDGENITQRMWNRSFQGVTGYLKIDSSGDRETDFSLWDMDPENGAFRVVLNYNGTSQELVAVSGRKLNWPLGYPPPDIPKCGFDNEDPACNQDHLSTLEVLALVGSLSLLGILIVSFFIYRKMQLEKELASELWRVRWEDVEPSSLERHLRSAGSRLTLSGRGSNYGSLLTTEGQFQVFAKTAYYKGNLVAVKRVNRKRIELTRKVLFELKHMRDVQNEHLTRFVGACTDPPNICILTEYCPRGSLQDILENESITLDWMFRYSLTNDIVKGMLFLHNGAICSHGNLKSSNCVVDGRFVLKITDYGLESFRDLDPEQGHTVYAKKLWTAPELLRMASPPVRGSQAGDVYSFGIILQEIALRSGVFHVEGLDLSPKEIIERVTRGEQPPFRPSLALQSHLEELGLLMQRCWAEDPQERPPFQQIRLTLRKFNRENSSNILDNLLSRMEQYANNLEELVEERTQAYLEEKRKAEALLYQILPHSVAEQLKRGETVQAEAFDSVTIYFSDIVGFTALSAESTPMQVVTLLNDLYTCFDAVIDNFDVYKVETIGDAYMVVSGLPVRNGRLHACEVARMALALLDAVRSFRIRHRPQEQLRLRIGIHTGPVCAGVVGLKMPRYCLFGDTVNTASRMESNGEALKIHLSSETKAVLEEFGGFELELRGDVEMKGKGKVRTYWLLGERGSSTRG
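HEK293 cells stably expressing human Npr1 and cGMP GloSensor pGS-40F, loaded 2 h with 2% GloSensor reagent, given compound 30 min at room temperature. Luminescence read before and 20 min after 0.1 nM hNppA.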
An asterisk follows results filed as active; ? = inconclusive; [ ] = another dose, or the depositor's remark. % is set by controls: 0 for no effect and ±100 for the full control effect; potency is the fitted concentration of half-maximal effect.

SMILES	hNpr1 antagonist
CC(C)CN1C(=O)CO[C@H](c2ccc(NC(=O)C3CCCC3)cc2)[C@H]1CO	?
CC(O)CN1CC2(CCC1=O)CCN(C(=O)c1ccnn1C)CC2 (stereo unspecified)	14%
O=C(c1noc2c1CCCC2)N1CCOc2ccc(CN3CCN(c4ccccn4)CC3)cc2C1	5%
COc1cccc(C(=O)N2CCN(C(C(=O)O)c3cc(C)cc(C)c3)CC2)c1 (stereo unspecified)	1%
COc1ccc2[nH]c(C[C@@H]3C[C@@H](C(C)C)[C@H](CNCc4cccnc4)C=C3C)nc2n1	-16%[70.6 µM]
COc1ccc(CN2CC(OCc3ccccc3F)CN(C(=O)C3=NNC(=O)CC3)CC2=O)cc1 (stereo unspecified)	8%
CCN1C(=O)C2CC3(CCN(C(=O)CC4CCCC4)CC3)CN2C1=O (stereo unspecified)	2%
CCOC(=O)c1ccc(NC(=O)N2Cc3[nH]cnc3C[C@H]2c2nc(-c3cccc([N+](=O)[O-])c3)no2)cc1	-21%
COC(=O)[C@H](CC1CCCCC1)NC(=O)[C@@H]1CN(C(=O)c2ccc(N(C)C)cc2)CCN1C(C)=O	3%
CC1(C(=O)NCc2cc3n(n2)CCCN(S(C)(=O)=O)C3)CCCCO1 (stereo unspecified)	-3%
O=C(CCC1CCN(S(=O)(=O)c2ccccc2F)CC1)NC1CC1	-1%
O=C(CCCc1ccccc1)N1CCC2(CC1)CC(OCC1CC1)CCO2 (stereo unspecified)	?
CCOc1ccc(C(=O)NC2CCN(c3cnn(CCOC)c(=O)c3)CC2)cc1	-14%
C[C@@]1(O)CCN(C(=O)c2ccc(C(=O)N3CCOCC3)cc2)C[C@@H]1O	3%
O=C(C1CC2(CCNCC2)CN1)N1CCc2c(nc(CC3CC3)[nH]c2=O)C1 (stereo unspecified)	0%
COc1ccc(C(=O)N[C@H]2CO[C@H]3[C@@H]2OC[C@@H]3n2nnnc2Oc2cccc(N(C)C)c2)cc1	7.1µM*
CCOc1ccccc1C(=O)N1CCCN(c2cc(-c3ccc(F)cc3)[nH]n2)CC1	0%
O=C(CCc1conc1-c1ccc(F)cc1)NC1CCCCC1	-1%
O=C1NCCCCCCN(S(=O)(=O)c2ccc3c(c2)CCC3)[C@H]2CCC[C@@H]12	-2%
CNC(=O)C1(N2CCC[C@H]2C(=O)NCc2cccnc2)CCCCC1	3%[70.6 µM]
COc1ccc(-c2noc(-c3nc(-c4ccc(OC)c(OC)c4)no3)n2)cc1OC	1%
COCCCNC(=O)N1C[C@@H]2CCCN3CCC[C@@H]([C@H]23)[C@H]1CCCC(=O)NCC1CC1	-4%
CC(=O)Nc1ccc(CNC[C@H]2Cn3cc(-c4ccc(C)cc4)nc3CO2)cc1	5%[70.6 µM]
COCCC(=O)N[C@H]1CC[C@]2(C)CC[C@@H]3[C@H](OC(=O)[C@H]3C)[C@H]2[C@@H]1C	-4%[70.6 µM]
O=C(c1ccn[nH]1)N1CCN(Cc2cnn3cccnc23)CC(O)C1 (stereo unspecified)	4%
Cc1noc(C)c1-c1cc2cc(CO)oc2c(NCCN2CCOCC2)n1	-9%[70.6 µM]
Cc1ccc(CNC(=O)N2CCCCCNC(=O)[C@@H]3CCC[C@@H]32)cc1	4%
COc1ccc(NC(=O)N2C[C@@H](F)C[C@H]2C(=O)N2CCc3ccccc3C2)c(C)c1	-1%
COc1ccc(CN2CC(Oc3ccc(F)cc3C)C2)cc1	-13%[70.6 µM]
COCCn1c(=O)c2c(n1Cc1ccccc1)CN(C(=O)c1cc3ccccc3n1C)CC2	-1%
COc1ccc(-c2nc3cnccn3c2NCCC(=O)O)cc1	0%
Cc1ccc(NC(=O)COc2cccc(-c3nnc4n3CCCC4)c2)cc1	4%
Cc1ccc(CNC(=O)C2CCCN(c3cnn(C)c(=O)c3)C2)cc1 (stereo unspecified)	0%
COCCC1(C(=O)O)CCCN(C(=O)N2CCN(C)CC2)C1 (stereo unspecified)	-2%
O=C(Cc1c[nH]c2ccccc12)N1CCCN(c2cc(-c3ccc(Br)cc3)[nH]n2)CC1	16µM*
Cc1cccc(C(=O)NC2CCN(c3cc(-c4cccs4)[nH]n3)C2)c1 (stereo unspecified)	-16%
CN1CCN(C(=O)CN2CC3CC(C2)[C@H]2CCCC(=O)N2C3)CC1 (stereo partly specified)	-5%
Cc1ccsc1CNC(=O)c1cccc(C#CC(C)(C)O)c1	-15%
COc1cccc(-c2ccnc3nc(-c4cccs4)nn23)c1	-14%
O=C(Nc1cccc(F)c1)c1ccc(Cn2ccn3nc4c(c3c2=O)CCCC4)cc1	?
CC1CN(C(=O)C2CCN(c3nc(-c4ccccc4)nc4c3CCC4)CC2)CCN1 (stereo unspecified)	-8%
COCCn1ncc(N2CCC(NC(=O)COC)CC2)cc1=O	-1%
Cc1cc(C)c(NC(=O)Cn2ccn3nc4c(c3c2=O)CCCC4)c(C)c1	-2%
CC(=O)c1ccc(NC(=O)N[C@H]2C[C@@](O)(C(=O)N[C@H](CC(C)C)C(N)=O)C[C@@H](O)[C@@H]2O)cc1	8%
O=C(c1ccccc1Cl)N1CCc2nc(C3CC3)nc(-c3ccc(O)cc3)c2CC1	4%
CCn1ncc(CN2C[C@@H](CO)[C@H](NC(=O)c3ccccc3)C2)c1C	0%
Cc1c(CC(=O)NCC(F)(F)F)c2c(n1Cc1ccccc1F)CCCC2=O	0%
O=C1CCN(Cc2cccnc2)CCCC(C(=O)NC2CCN(Cc3ccccc3)CC2)CCN1 (stereo unspecified)	5%
COc1ccc(-c2noc(-c3cccn3CC(=O)N3CCC(C)CC3)n2)cc1F	-18%
COc1ccc(OCc2nc(C)c(CCO)c(=O)n2CC(=O)Nc2cc(OC)cc(OC)c2)cc1	3%
O=C(CCn1cncn1)N(CC1CCN(Cc2ccccc2F)CC1)CC1CCCO1 (stereo unspecified)	-9%
COCCN1C(=O)c2ccccc2C(C(=O)N2CCN(c3ccccc3)CC2)C12CCCC2 (stereo unspecified)	1%
COc1ccccc1CC(=O)N[C@@H]1c2ccccc2C2(CCNCC2)[C@H]1OC	1%
C[C@@H](NS(=O)(=O)c1ccccc1)c1onc(-c2cccnc2)c1C(=O)O	1%[70.6 µM]
Cc1cnc(-c2ccccc2)n1C1CCCNC1 (stereo unspecified)	-2%
CC1CCN(C(=O)C[C@@H]2c3nc(NC(=O)C(C)(C)C)sc3C[C@@H]3[C@](C)(CO)[C@H](O)CC[C@]32C)CC1	3%
Cc1ccsc1C(=O)NC1CCCN(c2cc(-c3ccc(F)cc3)[nH]n2)C1 (stereo unspecified)	-29%
O=C(C1CC1)N1CC[C@](O)(c2ccccc2)[C@H](N2CCCC2)C1	0%
CC[C@H]1CN(S(=O)(=O)c2ccc(OC)cc2)CC[C@H]1CC(=O)NCc1cccnc1	1%[70.6 µM]
O=C1CCC(CNC(=O)c2nc(-c3ccccc3)cc3[nH]ccc23)N1 (stereo unspecified)	-6%[70.6 µM]

(continued)
SMILES	hNpr1 antagonist
COc1ccc(CN2CC[C@H]3COC(=O)N3c3ccc(OC)cc3C2)cc1	0%[70.6 µM]
Cc1cc(=O)n(CC(=O)Nc2cc(Cl)ccc2C)c(N2CCN(c3ccccc3)CC2)n1	3%
CN(Cc1ccno1)C(=O)c1cccc(CC2CCNCC2)c1	8%
COc1cncc(Nc2ncc(-c3cccnc3)c3c2OCC3)c1	-1%[70.6 µM]
CC(C)N1C[C@H](C(=O)N2CCC(Cc3ccccc3)CC2)[C@H](C(=O)O)C1	-3%
CNC(=O)[C@H]1C[C@H](Oc2cccnc2)CN1C(=O)NCc1ccccc1	-11%
O=C(NC1CCN(c2nc3ncccc3o2)CC1)c1ccccc1	-4%[70.6 µM]
CCOc1ccc(C(=O)N2CC(c3nnc(C(C)C)o3)C3(CCOCC3)C2)cc1OCC (stereo unspecified)	2%
Cc1cc(C(F)(F)F)nn1CC(=O)NCC(=O)N1CCCCCNC(=O)CC1c1ccccc1 (stereo unspecified)	4%
NC(=O)c1cc[nH]c1C1CCCN(C(=O)c2ccc3ccccc3n2)C1 (stereo unspecified)	8%
Cc1ccc(CN2C(=O)[C@@H]3C[C@@H](O)CN3C3(CN(Cc4cccnc4)C3)C2=O)o1	-1%[70.6 µM]
O=C1CCCCC(CNC(=O)c2cn[nH]c2-c2ccccc2)N1 (stereo unspecified)	4%
Cc1nc(N)nc(C)c1CC(=O)N1CC[C@@H](NC(=O)c2cccnc2)[C@H](O)C1	4%
O=C1CCN(C(=O)c2cccs2)CCCC(C(=O)N2CCN(c3ccccn3)CC2)CCN1 (stereo unspecified)	2%
O=C(NC[C@H]1O[C@@H](CC(=O)N2CCN(c3ccc(F)cc3)CC2)[C@H](O)[C@@H]1O)c1ccc(F)c(Cl)c1	0%

Quoted at random: two compounds from above, in no set order.
SMILES	hNpr1 antagonist
Cc1nc(N)nc(C)c1CC(=O)N1CC[C@@H](NC(=O)c2cccnc2)[C@H](O)C1	4%
Cc1ccc(CN2C(=O)[C@@H]3C[C@@H](O)CN3C3(CN(Cc4cccnc4)C3)C2=O)o1	-1%[70.6 µM]

New compounds follow:
SMILES	hNpr1 antagonist
Cc1cc(C(F)(F)F)nc(CCNC(=O)c2cn(CCCc3ccccc3)nn2)n1	0%
CCOc1cccc(CNC(=O)c2cc3n(n2)CC(c2ccc(Cl)cc2)OC3)c1 (stereo unspecified)	-25%
Cc1cn2nc(C(=O)N3CCC(C(N)=O)CC3)cc2c(N2CCCC2)n1	1%
CCc1nc(-c2c3n(c(=O)n(CC(=O)Nc4ccccc4C)c2=O)CCCCC3)no1	0%
COc1ccc(C(=O)NC[C@H]2O[C@@H](CC(=O)N3CCN(c4ccccc4)CC3)[C@H](O)[C@@H]2O)cc1	-1%
Cc1ccc(C(=O)N2CCCn3cc(-c4cccc(C#N)c4)nc32)cn1	6%
O=C(N1CCOCC1)C1(CCO)CC12CCOCC2 (stereo unspecified)	0%
O=C(CCCN1C(=O)COc2ccc(C(=O)COc3cccc(Cl)c3)cc21)NCC1CC1	-13%
CN(C)C[C@@H]1CN(Cc2ccccc2)C[C@H]1NS(=O)(=O)c1cccnc1	-3%
CC1CCCN(C(=O)Cn2ccn3nc(-c4ccccc4)c(CO)c3c2=O)C1 (stereo unspecified)	-1%
COc1ccc(-n2c(=O)c3c(n2Cc2ccccc2)CN(C(=O)CNC(C)=O)CC3)cc1	-2%
CC(C(=O)NCc1ccccc1)N1C(=O)COc2ccc(C(=O)COc3ccc(Cl)cc3)cc21 (stereo unspecified)	-3%
Cc1csc(NC(=O)[C@@H]2CCC[C@@H](NC(=O)c3ccccc3)CN(C)C(=O)C2)n1	-18%[70.6 µM]
COC(=O)[C@H](NC(=O)[C@@]1(O)C[C@@H](O)[C@H](O)[C@@H](NC(=O)Nc2ccc(OC(F)(F)F)cc2)C1)C(C)C	1%
O=c1c2nc(-c3ccncc3)ccc2ncn1-c1ccccc1	3%[70.6 µM]

A different layout for 13 compounds above.
compound | hNpr1 antagonist
Cc1cc(C(F)(F)F)nc(CCNC(=O)c2cn(CCCc3ccccc3)nn2)n1 | 0%
CCOc1cccc(CNC(=O)c2cc3n(n2)CC(c2ccc(Cl)cc2)OC3)c1 (stereo unspecified) | -25%
Cc1cn2nc(C(=O)N3CCC(C(N)=O)CC3)cc2c(N2CCCC2)n1 | 1%
CCc1nc(-c2c3n(c(=O)n(CC(=O)Nc4ccccc4C)c2=O)CCCCC3)no1 | 0%
COc1ccc(C(=O)NC[C@H]2O[C@@H](CC(=O)N3CCN(c4ccccc4)CC3)[C@H](O)[C@@H]2O)cc1 | -1%
Cc1ccc(C(=O)N2CCCn3cc(-c4cccc(C#N)c4)nc32)cn1 | 6%
O=C(N1CCOCC1)C1(CCO)CC12CCOCC2 (stereo unspecified) | 0%
O=C(CCCN1C(=O)COc2ccc(C(=O)COc3cccc(Cl)c3)cc21)NCC1CC1 | -13%
CN(C)C[C@@H]1CN(Cc2ccccc2)C[C@H]1NS(=O)(=O)c1cccnc1 | -3%
CC1CCCN(C(=O)Cn2ccn3nc(-c4ccccc4)c(CO)c3c2=O)C1 (stereo unspecified) | -1%
COc1ccc(-n2c(=O)c3c(n2Cc2ccccc2)CN(C(=O)CNC(C)=O)CC3)cc1 | -2%
CC(C(=O)NCc1ccccc1)N1C(=O)COc2ccc(C(=O)COc3ccc(Cl)cc3)cc21 (stereo unspecified) | -3%
Cc1csc(NC(=O)[C@@H]2CCC[C@@H](NC(=O)c3ccccc3)CN(C)C(=O)C2)n1 | -18%[70.6 µM]

Remaining list, next part
SMILES	hNpr1 antagonist
N[C@@H]1CCN(C(=O)c2ccccc2OC(F)(F)C(F)F)C[C@H]1O	-2%
Cc1cc(C)c(CNC(=O)c2cccc(CCC(C)(C)O)c2)cn1	-17%
O=C(C1CCCC1)N1CCC2(CC1)N(Cc1cccc(F)c1)C(=O)CS2=O (stereo unspecified)	1%
Clc1ccc(C2Cn3nnc(-c4nc(-c5cccc(Br)c5)no4)c3CO2)cc1 (stereo unspecified)	1%
Cc1cc(C)cc(NC(=O)N2CCCC(c3noc(COc4ccccc4)n3)C2)c1 (stereo unspecified)	-19%
CN(Cc1ccc2nonc2c1)C(C(=O)O)c1ccc(-c2ccn[nH]2)cc1 (stereo unspecified)	-1%
COCC1CN(C(=O)c2ccc(Br)cc2)CC12CCNCC2 (stereo unspecified)	5%
CCN1c2cc(C(=O)Nc3ccc(F)cc3)ccc2C(=O)N2CCCCC21 (stereo unspecified)	-13%
COc1ccc(NC(=O)C2(C)CCCc3cnc(NCc4ccccc4)nc32)cn1 (stereo unspecified)	-16%[70.6 µM]
O=C(COc1ccccc1)N1CCc2nn(Cc3ccccc3)c(=O)n2CC1	6%
COCCN1C(=O)N(CC(C)C)C(=O)C12CCN(Cc1cnn(-c3ccccc3OC)c1)CC2	-5%
CN(CC(=O)N1CCN(Cc2ccccc2)CC(O)C1)C1CCCC1 (stereo unspecified)	9%
CCc1nc2c(=O)n(CC(=O)NC(C)c3ccccc3)nc(C)c2s1 (stereo unspecified)	7%

Compound activity from PubChem BioAssay.

A portion of the library; the hit share may differ from the screen's.
